# HPGD block – HPGD (human) dehydrogenase inhibition; P15428; purified HPGD, NADH fluorescence kinetic, PGE2 substrate; Potency, µM, for inactives: at the top dose activity change, negative = inhibition, usual class: inhibitors; actives 4.3% (n = 150,000); AID 894; active = well fitted inhibition curve with a large enough effect (not every such curve was filed as active); inconclusive = small, poorly fitted or top-dose-only effect, or another doubt; inactive = no such curve, though single readings can be large or run the other way;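 further: top concentration of the series not given in the record; plate controls included wells without enzyme; inactives centre near -10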
# Target sequence (P15428 whole entry, looked up): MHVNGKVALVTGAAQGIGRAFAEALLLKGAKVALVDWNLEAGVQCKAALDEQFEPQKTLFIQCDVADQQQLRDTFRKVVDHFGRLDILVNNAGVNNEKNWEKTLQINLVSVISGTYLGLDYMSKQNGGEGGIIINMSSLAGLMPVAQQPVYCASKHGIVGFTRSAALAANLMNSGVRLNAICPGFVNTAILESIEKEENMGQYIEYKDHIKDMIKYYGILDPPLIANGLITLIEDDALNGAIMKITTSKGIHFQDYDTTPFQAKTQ
#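 NADH formation kinetics: reaction with 30 uM PGE2 and 1 mM NAD+ (final), 20 nM enzyme, Tris-HCl pH 8 with Tween 20, after 15 min compound preincubation at room temperature. Fluorescence change, last versus first of five reads.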
# An asterisk follows results filed as active; u = inconclusive; & = joins results of further samples. On the % scale 0 is the no-effect control and ±100 the full control effect; potency means the concentration at half of the fitted maximal effect. An excerpt; count on the stated rates, not on these rows.
Cc1cc(F)ccc1NC(=O)c1ccc(NS(=O)(=O)c2cc(C(C)(C)C)ccc2C)cc1
  HPGD block: -11%
COC(=O)c1ccc(Oc2c(C)oc3c(CN4CCN(C)CC4)c(O)ccc3c2=O)cc1
  HPGD block: u
COc1ccc(NC(=O)c2cc(-c3ccccc3)nc3c2c(C)nn3-c2ccccc2)c(OC)c1
  HPGD block: u
O=C(Oc1ccccc1N1C(=O)C2CCCCC2C1=O)c1ccccc1F (stereo unspecified)
  HPGD block: -10%
C=CCN1C(=O)C(C)(C)Nc2ccccc21
  HPGD block: -6%
Cc1cc(C(=O)OCC(=O)Nc2ccc(F)c(F)c2)c(C)o1
  HPGD block: -14%
COc1cccc2cc(NC(=O)C3CCCCC3)c(=O)oc12
  HPGD block: u
COc1ccccc1N=c1oc2cc(O)ccc2cc1C(N)=O
  HPGD block: u
CN(C)C(=O)c1ccc(NC(=O)c2cc(-n3cnnc3)ccc2Cl)cc1
  HPGD block: u
O=C(Nc1ccc2snnc2c1)N1CCSCC1
  HPGD block: -20%
Cc1ccc(NC2=C(NC(=O)c3ccccc3)C(=O)c3ccccc3C2=O)cc1Cl
  HPGD block: 20µM*
O=C1CC2(CON=C2c2ccc(F)cc2)C(=O)N1c1ccc(F)cc1 (stereo unspecified)
  HPGD block: -2%
COc1ccc(-c2noc(CSc3nc4ccccc4c(=O)n3-c3ccccc3)n2)cc1
  HPGD block: -9%
COc1ccc(-n2nc3cc(C)c(N)c(Br)c3n2)cc1
  HPGD block: u
CN(C)CC/C=C1\c2ccccc2Sc2ccc(Cl)cc21
  HPGD block: -2%&-8%&-6%&-8%
Cc1ccc(N2C(=O)CC(Sc3nc(-c4ccccc4)c4cc(Cl)ccc4n3)C2=O)c(C)c1 (stereo unspecified)
  HPGD block: u
Cc1ccccc1CN(c1ccc(C(=O)Nc2ccccc2C(=O)NCc2ccco2)cc1)S(C)(=O)=O
  HPGD block: u
Cc1ccc(CNC(=O)C(Cc2ccccc2)NS(=O)(=O)c2ccc3c(c2)CCC(=O)N3)cc1 (stereo unspecified)
  HPGD block: -3%
CCOC(=O)c1c(C)[nH]c2c1-c1ccccc1C(=O)C2=O
  HPGD block: -8%
COc1cccc(-c2nc(CS(=O)(=O)CC(=O)N3CCc4ccccc4C3)c(C)o2)c1
  HPGD block: -13%
Oc1cc2c(cc1O)CN(C(=S)NCCc1ccc(Cl)cc1)CCC2
  HPGD block: 14µM*
CCOC(=O)CCC(=O)O[C@H]1C(O[C@@H]2C(C)[C@H](O[C@H]3C[C@@](C)(OC)C(O)C(C)O3)C(C)C(=O)OC(CC)[C@@](C)(O)C(O)[C@H](C)C(=O)C(C)C[C@]2(C)O)OC(C)CC1N(C)C (stereo partly specified)
  HPGD block: -8%
CC(C)CNS(=O)(=O)c1ccc(CCC(=O)Nc2cc(Cl)ccc2Oc2ccccc2)cc1
  HPGD block: -2%
COc1cccc(NC(=O)C2CC(=O)n3cnnc3S2)c1 (stereo unspecified)
  HPGD block: 16µM*
COc1cc(CN2CCC(C(=O)NC3CCCC3)CC2)cc(OC)c1O
  HPGD block: 6%

O=C(CCC1CCCCC1)NCc1ccccn1
  HPGD block: 32µM*
COc1ccc(O[C@H]2C=C[C@@H](c3ccccc3)O[C@@H]2COC(=O)CC/C(C)=N/O[C@H](C)c2cn([C@@H]3COC[C@H]3O)nn2)cc1
  HPGD block: -5%
COc1ccc(C2=Nn3c(nnc3-c3ccccn3)SC2)cc1OC
  HPGD block: u
CCOC(=O)C1CCCN(c2nc(C)nc3c2oc2ccccc23)C1 (stereo unspecified)
  HPGD block: -5%
O=C1CCCC2=C1C(c1ccsc1)CC(=O)N2c1nnc(SCc2ccccc2)s1 (stereo unspecified)
  HPGD block: -27%
CC(C)C(NS(=O)(=O)c1cccs1)C(=O)N(C)Cc1ccccc1 (stereo unspecified)
  HPGD block: 1%
Cc1ccccc1-n1c(C)nc2ccccc21
  HPGD block: -6%
Cn1c2c(c(=O)n(C)c1=O)C(NC(=O)c1ccco1)(C(F)(F)F)C(=O)N2 (stereo unspecified)
  HPGD block: -10%
NC(=O)CC1(CC(=O)O)CCCCC1
  HPGD block: -13%
CCCCn1c(N)c(N(CCOC)C(=O)CCc2ccc(OC)cc2)c(=O)[nH]c1=O
  HPGD block: -8%
COCCN(C(=S)Nc1cccc(C)c1)C(C)c1cccs1 (stereo unspecified)
  HPGD block: -1%
CCN(CC)S(=O)(=O)c1ccc(NC(=O)c2cc(-c3ccccc3)nc3ccccc23)cc1
  HPGD block: -21%
Cc1cc(C(=O)N/N=C/c2cccn2C)no1
  HPGD block: -16%
CC(=O)Nc1ccc(Oc2nc(C)cc(C)n2)cc1
  HPGD block: -13%
O=C(CSCc1ccc(F)cc1)N1CCOCC1
  HPGD block: -3%
COc1ccc(Nc2nc(NC(C)(C)C)nc(N3CCCC3)n2)c(OC)c1
  HPGD block: -7%
N=C1C(c2nc3ccccc3[nH]2)=C(O)CN1c1ccccc1
  HPGD block: -12%
O=c1c2cc3c(=O)n(CC4CCCO4)c(=O)c3cc2c(=O)n1CC1CCCO1 (stereo unspecified)
  HPGD block: 0%
CC(C)N=C(NS(=O)(=O)c1ccccc1)C(Cl)(Cl)Cl
  HPGD block: u
Cc1ccc(S(=O)(=O)N2CCN(c3c([N+](=O)[O-])cc(C(F)(F)F)cc3[N+](=O)[O-])CC2)cc1
  HPGD block: -12%
Cc1ccccc1/C=N\NC(=O)c1ccc(Cn2cccn2)o1
  HPGD block: -18%
C/C(=C(\C#N)C(=O)NCc1ccccc1)N(C)C
  HPGD block: u
CC(=O)c1cccc(N(C(=O)Cn2nnc3ccccc32)C(C(=O)NC2CCCCC2)c2cn(C)nc2C)c1 (stereo unspecified)
  HPGD block: -6%
Cc1nnc2ccc(N3CCC4(CC3)OCCO4)nn12
  HPGD block: -4%
N#CC1(c2ccccc2)CCCN1C(=O)c1ccco1 (stereo unspecified)
  HPGD block: -3%

O=C(N/N=C/c1ccc(Br)cc1)c1cc[n+](Cc2ccccc2)cc1
  HPGD block: -15%
O=C(CSc1nc2ccccc2c(=O)[nH]1)Nc1ccc(S(=O)(=O)N2CCCC2)cc1
  HPGD block: 14µM*
O=C(Cc1c(O)c2ccccc2[nH]c1=O)NCc1ccccc1F
  HPGD block: u
Cc1cccc(NC(=O)CSc2nc(-c3ccccc3)c(C#N)c(=O)[nH]2)c1C
  HPGD block: -15%
CCCCN1C(=O)CC(C(=O)O)C1c1ccc(OC)cc1 (stereo unspecified)
  HPGD block: -2%
Cn1c(N)c(C(=O)COC(=O)c2ccc3c(c2)OCCO3)c(=O)n(C)c1=O
  HPGD block: -12%
COC(=O)c1nc2cc3c(cc2c(C)c1C(=O)OC)OCO3
  HPGD block: u
COc1ccc(S(=O)(=O)Nc2ccc(S(=O)(=O)N3CCOCC3)cc2)cc1C
  HPGD block: -6%
COc1ccc(C(=O)N=c2nc3ccccn3s2)cc1
  HPGD block: -6%
COC(=O)CC1SC(=O)NC1=Nc1ccc(O)cc1 (stereo unspecified)
  HPGD block: -7%
CCCCCC(=O)N/N=C(\C)c1ccccn1
  HPGD block: 4%
Cc1cc(NC(=O)c2c(Cl)c(C)nn2C)no1
  HPGD block: 3%
O=c1oc2ccccc2cc1-c1nnc(NCc2ccco2)s1
  HPGD block: -13%
CCOC(=O)C1=C(OCc2ccc(Cl)cc2)C2C=C(C)C=CC2N=C1 (stereo unspecified)
  HPGD block: -6%
CC12CC(NC(=O)N1c1cccc(C(=O)N3CCN(c4ccccn4)CC3)c1)c1ccccc1O2 (stereo unspecified)
  HPGD block: 1%
CCOc1ccccc1N(C(=O)c1snc(C(N)=O)c1N)C(C(=O)NCCC(C)C)c1ccco1 (stereo unspecified)
  HPGD block: u
COc1ccccc1NC(=O)c1nc[nH]c1C(=O)Nc1ccccc1OC
  HPGD block: u
O=C1OC(N2CCN(c3ccccn3)CC2)c2ccccc21 (stereo unspecified)
  HPGD block: 2%
COCCNC(=O)c1onc(CSc2ccc(F)c(F)c2)c1C(=O)O
  HPGD block: -17%
CCN(CC)c1ccc(/C=C2\C(=O)c3ccc(C(=O)O)cc3C2=O)cc1
  HPGD block: 2.8µM*
COc1ccc(CCNC(=O)c2ccc(CNS(=O)(=O)c3ccccc3)cc2)cc1OC
  HPGD block: -11%
CSc1cccc(NC(=O)C2CCN(C(=O)c3ccccc3C)CC2)c1
  HPGD block: -4%
CC(Sc1nc2cc(Cl)ccc2s1)C(=O)Nc1ccc2c(c1)OCO2 (stereo unspecified)
  HPGD block: -23%
CCOc1ccnc(OCC)c1Br
  HPGD block: u
COc1cc(CCC(=O)Nc2cc(Cl)ccc2N2CCN(C)CC2)cc(OC)c1OC
  HPGD block: -13%

O=C(c1ccccc1Nc1ccc(SC(F)F)cc1)N1CCCCCC1
  HPGD block: -22%
Cn1c(=O)c2c(nc(CN3CCN(Cc4ccccc4)CC3)n2Cc2cccc(Cl)c2)n(C)c1=O
  HPGD block: 5%
CC(C(=O)NCC1(c2ccccc2)CCCC1)N1CCCC1 (stereo unspecified)
  HPGD block: 0%
O=C1OC(N2CCN(C/C=C/c3ccccc3)CC2)c2ccccc21 (stereo unspecified)
  HPGD block: -3%
CC(C)C(=O)NC(Nc1cccc2cccnc12)C(Cl)(Cl)Cl (stereo unspecified)
  HPGD block: -2%
O=C(Nc1nnc(-c2ccc(F)cc2)o1)c1cc(Cl)sc1Cl
  HPGD block: -21%
COc1ccc(C2C3=C(CC(C)(C)CC3=O)Oc3ncn(CCCn4ccnc4)c(=N)c32)cc1 (stereo unspecified)
  HPGD block: -3%
CCn1c(=O)cc(N2CCC3(CC2)OCCO3)[nH]c1=O
  HPGD block: -1%
Cc1cccc(NC(=O)C(C)Oc2ccccc2C)n1 (stereo unspecified)
  HPGD block: -5%
O=C(O)C1[C@H]2C(=O)N(C3CCCC3)C[C@]23C=C[C@H]1O3 (stereo partly specified)
  HPGD block: -4%
COc1ccc(C2C3=C(CCCC3=O)Nc3nc(SCc4ccccc4)nn32)cc1OC (stereo unspecified)
  HPGD block: -16%
Cc1ccc(-c2nnn(CC(=O)Nc3ccc4nn(-c5ccccc5)nc4c3)n2)o1
  HPGD block: 0%
COc1ccc(NC(=O)C2CCCN(S(=O)(=O)c3c(C)[nH]c(=O)[nH]c3=O)C2)cc1 (stereo unspecified)
  HPGD block: -1%
Cc1nn(-c2ccccc2)c(C)c1/C=N/NC(=O)c1cc(-c2ccccc2)n[nH]1
  HPGD block: -17%
CCC(C)(C)n1nnnc1C(c1ccc2ncccc2c1)N1CCCCCC1 (stereo unspecified)
  HPGD block: -12%
Cc1c(Cl)cccc1NC(=O)CCN1CCCCCC1
  HPGD block: 2%
CC12C(=O)N(c3ccc(C(=O)N4CCOCC4)cc3)C(=O)C1C1c3ccccc3C2c2ccccc21 (stereo unspecified)
  HPGD block: -22%
O=C(CC(c1ccccc1)c1ccccc1)Nc1ccc2c(c1)OCCO2
  HPGD block: u
O=C1C2C(c3ccccc3)(C(=O)N1c1ccc(Cl)cc1)C2(c1ccccc1)c1ccccc1 (stereo unspecified)
  HPGD block: -7%
CCC(=O)N1CCc2cc(S(=O)(=O)NC(C(=O)NC3CCCc4ccccc43)C(C)C)ccc21 (stereo unspecified)
  HPGD block: -24%
OCCNCc1ccc(-c2ccccc2)cc1
  HPGD block: -4%
CC(C)=CCC/C(C)=C/CC/C(C)=C/CSCC(=O)O
  HPGD block: -12%
Cc1c(NC(=O)c2ccc3c(c2)C(=O)N(CC2CCCO2)C3=O)cccc1C(=O)O (stereo unspecified)
  HPGD block: -5%
O=C(c1ccco1)N1CCN(c2ncnc3c2oc2ccccc23)CC1
  HPGD block: -8%
O=C(NCc1ccccn1)c1cc(-c2ccccc2Cl)nc2ccccc12
  HPGD block: -16%

O=C(NC1CC1)c1cc(=O)c2ccccc2o1
  HPGD block: -4%
CCOC(=O)N1CCC(Nc2c(Nc3ccc(F)cc3)c(=O)c2=O)CC1
  HPGD block: -28%
O=C(COC(=O)Cc1cccc2ccccc12)Nc1ccccc1-c1ccccc1
  HPGD block: -25%
c1ccc(-c2nc3ccccc3c3nc4ccccc4n23)cc1
  HPGD block: u
O=S(=O)(c1cccs1)n1cccn1
  HPGD block: -2%
COCCNC(=O)c1ccc(-n2c(SCc3cc(F)ccc3F)nc3ccccc3c2=O)cc1
  HPGD block: -2%
O=C(OCc1c(Cl)cccc1Cl)c1ccccn1
  HPGD block: -14%
COC(=O)c1cc(C)sc1NC(=O)C1CC=CCC1C(=O)O (stereo unspecified)
  HPGD block: -16%
COc1ccc(CC(=O)Nc2cc(Cl)ccc2O)cc1
  HPGD block: -18%
Nc1nc(Cl)cc(Sc2ccc3ccccc3c2)n1
  HPGD block: -12%
O=C1CC(c2ccccc2)CN1Cc1ccccc1 (stereo unspecified)
  HPGD block: u
CCOC(=O)N1CCN(Cc2nc3c(c(=O)[nH]c(=O)n3C)n2Cc2cc(C)ccc2C)CC1
  HPGD block: 11%
COc1cccc(CNC(=O)C2CCCN(S(=O)(=O)c3c(C)[nH]c(=O)[nH]c3=O)C2)c1 (stereo unspecified)
  HPGD block: -4%
CN(C)c1cc[n+](Cc2c(Cl)cccc2Cl)cc1
  HPGD block: 1%
Cc1cccc(-n2c(N)cc(=O)nc2SCC(=O)Nc2nnc(C)s2)c1
  HPGD block: -8%
Cc1cc(C)cc(NC(=S)NC(=O)CCN2C(=O)c3ccccc3C2=O)c1
  HPGD block: -23%

# 7 compounds drawn at random from the list so far, as already listed:
O=C1CC(c2ccccc2)CN1Cc1ccccc1 (stereo unspecified)
  HPGD block: u
CCOC(=O)N1CCC(Nc2c(Nc3ccc(F)cc3)c(=O)c2=O)CC1
  HPGD block: -28%
O=C(COC(=O)Cc1cccc2ccccc12)Nc1ccccc1-c1ccccc1
  HPGD block: -25%
COCCNC(=O)c1ccc(-n2c(SCc3cc(F)ccc3F)nc3ccccc3c2=O)cc1
  HPGD block: -2%
COc1ccc(CC(=O)Nc2cc(Cl)ccc2O)cc1
  HPGD block: -18%
CN(C)c1cc[n+](Cc2c(Cl)cccc2Cl)cc1
  HPGD block: 1%
Nc1nc(Cl)cc(Sc2ccc3ccccc3c2)n1
  HPGD block: -12%

# High-throughput results as filed in PubChem.
